14-3-3 Bad inh = inhibitors of 14-3-3 zeta/Bad binding, primary screen, biochemical, TR-FRET, bovine 14-3-3 zeta; TR-FRET 14-3-3zeta/Dy647-pBad peptide displacement, 1 h; 0.71% of 220,000 active; AID 781, 2007; 14-3-3 protein zeta/delta (Bos taurus), P63103; inhibition, % at 21.7 µM;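 active = inhibition above about 70%, limit read from the data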;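 note: 0% = full 14-3-3 plus peptide FRET controls and 100% = background without 14-3-3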
Target sequence (P63103 whole entry, looked up): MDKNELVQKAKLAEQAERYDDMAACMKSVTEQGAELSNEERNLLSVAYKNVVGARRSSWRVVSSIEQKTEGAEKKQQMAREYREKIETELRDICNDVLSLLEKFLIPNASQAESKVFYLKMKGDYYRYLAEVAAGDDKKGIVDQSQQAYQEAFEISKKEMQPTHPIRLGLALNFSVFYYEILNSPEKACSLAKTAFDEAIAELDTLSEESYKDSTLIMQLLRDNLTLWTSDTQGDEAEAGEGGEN
eIF4E-4G inh = eIF4E–eIF4G protein interaction inhibitors, primary screen, biochemical, uHTS, TR-FRET, eIF4GI fragment; AID 782, 2007; TR-FRET eIF4E-eIF4GI(517-606) binding, 2 h; Eukaryotic translation initiation factor 4E (Mus musculus) + Eukaryotic translation …; 0.37% of 220,000 active; inhibition, % at 21.7 µM;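 active = inhibition above about 30%, limit read from the data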;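 note: 0% = full FRET control wells and 100% = background wells lacking eIF4GI fragment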
hK5 inh = human KLK5 protease inhibitors, primary screen, biochemical, 1536-well; 0.59% of 210,000 active; recombinant hK5, fluorogenic AMC substrate cleavage; inhibition, % at 5 µM; AID 873, 2007;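 active = inhibition of 40% or more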;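 note: 0% = enzyme controls without compound and 100% = no-enzyme blanks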
Wee1 stabilizer = Wee1 degradation inhibitors, primary screen, cell-based, HeLa, Wee1K328M-luciferase, luminescence; HeLa Luc-Wee1K328M stability; 100% = proteasome inhibitor MG132 effect; reporter increase, % at 5 µM; 1.2% of 220,000 active; AID 1321, 2008;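 active = activation above the mean of all tested compounds plus 3 SD, set per screening run, cut at about 8.8% in these data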;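 note: cells exposed to compound for 20 h before luminescence read; 0% = DMSO alone and 100% = MG132 at 30 µM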
Target sequence (P30291 whole entry K328M): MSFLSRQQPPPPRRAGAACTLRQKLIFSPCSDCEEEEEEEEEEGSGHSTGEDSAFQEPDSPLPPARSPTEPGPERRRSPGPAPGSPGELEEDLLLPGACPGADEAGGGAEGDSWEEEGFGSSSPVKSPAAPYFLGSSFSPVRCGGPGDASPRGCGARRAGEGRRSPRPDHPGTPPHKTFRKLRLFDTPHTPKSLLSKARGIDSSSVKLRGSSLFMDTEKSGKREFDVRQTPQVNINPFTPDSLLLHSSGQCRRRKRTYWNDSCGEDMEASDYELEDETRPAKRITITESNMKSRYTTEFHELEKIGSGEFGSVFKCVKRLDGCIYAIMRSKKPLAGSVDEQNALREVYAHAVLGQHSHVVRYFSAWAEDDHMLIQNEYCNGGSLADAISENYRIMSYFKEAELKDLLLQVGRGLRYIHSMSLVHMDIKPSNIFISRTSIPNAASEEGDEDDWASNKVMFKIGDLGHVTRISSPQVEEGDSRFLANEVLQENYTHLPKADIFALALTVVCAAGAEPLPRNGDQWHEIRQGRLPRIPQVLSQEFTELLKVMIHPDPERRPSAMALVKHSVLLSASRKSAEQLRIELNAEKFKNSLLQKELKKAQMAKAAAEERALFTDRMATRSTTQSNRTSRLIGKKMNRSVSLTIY
MDM2 E3 inh = MDM2-luciferase reporter signal enhancers, primary screen, MDM2 E3 ligase inhibitor project, cell-based, luminescence, 1536-well | signal enhancement, % at 5 µM | 0.11% of 210,000 active | E3 ubiquitin-protein ligase Mdm2 (Homo sapiens), Q00987 | AID 1230, 2008 | cell-based MDM2 ubiquitination luciferase reporter, 2 h; 0 = plate control, 100 = twice control, blank-subtracted;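 active = signal enhancement of 30% or more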;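 note: luminescence tracks abundance of the self-degrading MDM2-luciferase fusion protein; higher signal means inhibition of MDM2 E3 ligase activity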
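system = mammalian cells stably expressing self-ubiquitinating, self-degrading MDM2 E3–luciferase fusion | quantity = 2000 cells per well seeded | incubation = 4 h cell settling then 2 h compound exposure, 37 °C | signal = SteadyLite luminescence, 15 min reagent step | benchmarks = plate control and blank wells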
Rad51 HR inh = human RAD51 strand exchange inhibitors, primary screen, biochemical, fluorescence; inhibition, % at 10 µM; DNA repair protein RAD51 homolog 1 (Homo sapiens), Q06609; hRad51 DNA strand exchange, fluorescence dequenching; AID 1385, 2008; 0.085% of 200,000 active;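 active = inhibition above 40% at the single screening dose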;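 note: 0% = DMSO control wells and 100% = blanks with heterologous ssDNA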
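Test system: preformed human Rad51 ssDNA filaments; also added: Donor/quencher-labelled 47-bp dsDNA substrate; doses: 10 µM final, single point; times: 37 °C 15-min filament assembly, 30-min compound preincubation, 15-min exchange; detection: FRET fluorescence dequenching, excitation 485 nm, emission 520 nm; read-out basis: Fluorescence-based percent inhibition, control- and blank-normalised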
p97 inhibitor = inhibitors of human p97 ATPase, primary screen, biochemical | Transitional endoplasmic reticulum ATPase (Homo sapiens), P55072 | recombinant p97 ATPase, Kinase-Glo ATP luminescence, 3 h | inhibition, % at 8 µM | 0.42% of 220,000 active | AID 1481, 2009; in the data active = inhibition above about 15%;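 note: 0% = DMSO vehicle and 100% = wells lacking enzyme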
The depositor's hits bear a star; . = no result given; [ ] = dose if it differs, or a comment. A portion of the library; rates above refer to the full screens.

SMILES	14-3-3 Bad inh	eIF4E-4G inh	hK5 inh	Wee1 stabilizer	MDM2 E3 inh	Rad51 HR inh	p97 inhibitor
O=S(=O)(Cc1ccccc1Cl)c1ncn[nH]1	-2	-8	-1	1	-1	11	-3
COc1ccc(C2=NOC(C(=O)NCC(C)C)C2)cc1 (stereo not drawn)	2	3	0	1	11	-11	2
COc1ccc(/C=N/Nc2nc(-c3ccc(Cl)cc3)cc(C(F)(F)F)n2)cc1OC	3	6	-8	0	-16	4	4
C=CCn1c(SCC(=O)Nc2c(C)nn(Cc3ccccc3)c2C)nnc1C(O)c1ccccc1 (stereo not drawn)	2	-1	-2	0	0	10	-4
CCOC(=O)c1cc(C#N)c(N2CCN(C)CC2)nc1-c1ccccc1	-24	8	20	5	-9	-10	0
CCCc1nc(-c2cc3cc(C)ccc3[nH]c2=O)no1	0	-1	-2	-3	-9	4	7
COCCn1c(C)cc2c(c1=O)C(c1ccccc1F)C(C#N)=C(N)O2 (stereo not drawn)	-15	-1	-17	-2	-14	2	-6
CN1c2ccccc2Oc2c(c(=O)n(C)c(=O)n2C)C1c1cccc([N+](=O)[O-])c1 (stereo not drawn)	-7	-14	-12	-1	1	-11	1
Cc1ccc(-n2c(SCC(=O)NCc3ccco3)nnc2-c2cccnc2)c(C)c1	-11[fluorescence artefact?]	-9	-2	-3	-21	7	1
O=C(OCc1ccco1)c1cccnc1	-2	3	-3	0	-5	-6	6
COCc1cc(=O)[nH]c(/N=C(\N)Nc2ccc(Cl)c(Cl)c2)n1	-9	-5	-1	-2	-7	.	5
COc1ccc2c(c1)Cc1sc(NC(=O)c3ccco3)nc1-2	-12	1	-2	1	2	-4	1
CCCCOc1ccccc1-c1cc(C(=O)O)[nH]n1	-15	-4[fluorescence artefact?]	-24	-1	-14	2	4
Cc1ccc(C)c(NC(=O)c2cnn3ccccc23)c1	10	-3[fluorescence artefact?]	-4	3	-8	-4	-5
Cc1nn(-c2ccccc2)c(N)c1C1(O)C(=O)Nc2ccccc21 (stereo not drawn)	-4	2	-1	1	-18	18	9
CC(C)(C)c1ccc(C(=O)OCC(=O)Nc2sc3c(c2C#N)CCC3)cc1	-1[fluorescence artefact?]	2[fluorescence artefact?]	2	6	.	.	4
O=C(CSc1nc(-c2ccco2)cc(C(F)(F)F)n1)N1CCN(Cc2ccccc2)CC1	1	0	-23	-3	-6	5	-6
CC(C)CNC(=O)C1CCN(c2ccc(S(=O)(=O)N3CCOCC3)cc2Cl)CC1	4	-1	-16	1	-33	5	2
CC(=O)n1nc(-c2ccco2)nc1SCc1ccccc1	1	2	0	0	-12	-5	2
CC(C(=O)NC(C)(C)C)N(Cc1cccs1)C(=O)CCN1CCc2ccccc21 (stereo not drawn)	0	7	-17	-4	-6	-1	0
O=C(c1ccc(COc2ccc(F)cc2)o1)n1cc(Br)cn1	-2	1	-14	-2	-3	-10	2
CCNC(=O)CC1C(=O)N(c2ccc(F)cc2)C(=O)N1CCc1sccc1C (stereo not drawn)	-16	-4	1	-5	-4	-17	3
Cc1ccc(-c2nnc3ccc(SCC(=O)NCc4ccco4)nn23)cc1	-12	-4	5	-1	-4	11	3
CN(C)/N=C1\CCS(=O)(=O)c2sccc21	-11	-4	-33	-1	1	4	2
Cc1sc(NC(=O)C2CC(Cl)=CCC2C(=O)O)c(C#N)c1C (stereo not drawn)	-6	-1	3	-3	-2	.	3
CC1CCN(C(=O)c2[nH]cnc2C(=O)N[C@@H](C)C(=O)OC(C)(C)C)CC1	-5	-6	2	.	7	2	.
CC(C)(C)NC(=O)CSc1nc(O)cc(=O)[nH]1	-10	14	-4	1	3	2	-3
Cc1ccccc1C(=O)O/N=C1\CCS(=O)(=O)c2sccc21	7	3[fluorescence artefact?]	0	1	-38	.	4
CCC(=O)N1C(C(=O)O)CSC1c1ccc(OC)cc1 (stereo not drawn)	5	6	-4	1	-14	2	0
Cc1ccc(C(=O)OC2=CC(=O)CC(C)(C)C2)cc1	30	8	-9	-2	-3	7	0
CCOc1ccc(N/C(SCc2cccc([N+](=O)[O-])c2)=C(/C#N)C(N)=O)cc1	1	-1	7	-4	3	2	2
CCOc1cccc2sc(Nc3nc4ccc(NC(C)=O)cc4s3)nc12	-21[fluorescence artefact?]	-2	-137	0	5	-5	1
COc1ccc(/C(C)=N\Nc2nc(-c3ccc(Cl)cc3)cc(C(F)(F)F)n2)cc1OC	-2	0	-8	-1	-10	6	3
CC1=C(C(=O)Nc2ccccc2)C(c2cccs2)n2nnnc2N1 (stereo not drawn)	-2	-5	-5	3	3	5	2
COc1ccc(NC(C)=O)cc1NC(C)C(=O)Nc1ccccc1F (stereo not drawn)	4	0	5	-2	-14	-1	0
CC(=O)c1cc(C#N)c(N2CCCCC2)nc1C	-10	-9	-28	1	-9	7	-1
CCn1c(SCC(=O)c2ccc(Br)cc2)nnc1C(C)NC(=O)Cc1ccc(OC)cc1 (stereo not drawn)	8	0	-10	0	3	-3	-3
Cc1c(Cc2c(C)n(C)n(-c3ccccc3)c2=O)c(=O)n(-c2ccccc2)n1C	-8	-1	-4	-2	7	.	3
COC(=O)NNC(=O)c1ccc(C)cc1	-4	5	1	-1	3	10	0
Cc1ccc(-c2n[nH]c(=S)n2/N=C/c2ccc(C)s2)cc1	2	7	5	4	-10	3	-1

In the list so far, these have a cyano group.
SMILES	14-3-3 Bad inh	eIF4E-4G inh	hK5 inh	Wee1 stabilizer	MDM2 E3 inh	Rad51 HR inh	p97 inhibitor
CCOC(=O)c1cc(C#N)c(N2CCN(C)CC2)nc1-c1ccccc1	-24	8	20	5	-9	-10	0
COCCn1c(C)cc2c(c1=O)C(c1ccccc1F)C(C#N)=C(N)O2 (stereo not drawn)	-15	-1	-17	-2	-14	2	-6
CC(C)(C)c1ccc(C(=O)OCC(=O)Nc2sc3c(c2C#N)CCC3)cc1	-1[fluorescence artefact?]	2[fluorescence artefact?]	2	6	.	.	4
Cc1sc(NC(=O)C2CC(Cl)=CCC2C(=O)O)c(C#N)c1C (stereo not drawn)	-6	-1	3	-3	-2	.	3
CCOc1ccc(N/C(SCc2cccc([N+](=O)[O-])c2)=C(/C#N)C(N)=O)cc1	1	-1	7	-4	3	2	2
CC(=O)c1cc(C#N)c(N2CCCCC2)nc1C	-10	-9	-28	1	-9	7	-1

The list goes on.
SMILES	14-3-3 Bad inh	eIF4E-4G inh	hK5 inh	Wee1 stabilizer	MDM2 E3 inh	Rad51 HR inh	p97 inhibitor
Cn1c(C(=O)NCCC2=CCCCC2)cc2c(=O)n3ccccc3nc21	-7	-23	-106	0	-16	2	-7
COc1ccc(NC(C)=O)cc1NC(C)C(=O)Nc1cccc2ccccc12 (stereo not drawn)	-2	8[fluorescence artefact?]	-12	-3	0	4	0
C=CCn1c(COc2ccc(Cl)cc2)nnc1SCC(=O)Nc1ccc(S(N)(=O)=O)cc1	4[fluorescence artefact?]	-2	-3	2	-21	.	-5
CS(=O)(=O)N1CCc2cc(C(=O)OCC(=O)c3ccccc3)ccc21	5	2	1	1	-8	-11	-7
CC(C)[C@H](Nc1ccc(S(=O)(=O)N2CCOCC2)cc1[N+](=O)[O-])C(=O)OCC(=O)N(C(C)C)C(C)C	-7	-4[fluorescence artefact?]	-20	0	-11	-1	-4
COc1cc(C2C(C#N)=C(N)Oc3cc(C)n(CC4CCCO4)c(=O)c32)cc2c1OCO2 (stereo not drawn)	-5	1	0	-1	-16	1	2
Cc1cc(C)c(S(=O)(=O)Nc2cccc(/C=C/C(=O)O)c2)c(C)c1	-17[fluorescence artefact?]	-5	-1	-2	-2	.	3
Cc1ccccc1/C=C/c1nc2ccccc2c(=O)n1Cc1ccccc1	-1	1[fluorescence artefact?]	-2	-3	-11	-1	-2
COc1ccc(C2=NOC(C(=O)N3CCCCCC3)C2)cc1OC (stereo not drawn)	9[fluorescence artefact?]	1	-9	1	0	1	-2
CS(=O)(=O)N(CC(=O)N1CCCCC1)c1cccc(F)c1	-15	1	6	-4	1	36	2
CC(C)(C)C(=O)Oc1cc(N)n(S(=O)(=O)c2ccccc2)n1	-5	-10	14	1	3	.	0
COc1cc(C(=O)OCCC(C)C)cc(OC)c1O	-3	2	-9	5	-11	-17	7
Cc1ccc(CNC(=O)CCc2ccc(S(=O)(=O)NC3CCCCC3)cc2)cc1	-2[fluorescence artefact?]	-4	-21	-2	-13	2	1
O=C(COc1ccc(Cl)cc1)Nc1ccc2oc(-c3ccncc3)nc2c1	27	-11	-28	-2	-13	-2	2
COC(=O)Cc1ccc(NC(=O)c2ccc(Br)o2)cc1	-5[fluorescence artefact?]	-7[fluorescence artefact?]	-20	-1	-4	3	-7
O=C(/C=C/NNC(=O)c1ccccc1)c1ccc([N+](=O)[O-])cc1	-14	-1	-6	4	-8	6	2
O=c1cc(O)c2sc3nc(-c4ccccc4)cc(C(F)(F)F)c3c2[nH]1	9[fluorescence artefact?]	-3[fluorescence artefact?]	-4	-1	10	-9	4
CCOC(=O)c1cc(C#N)c(Oc2ccc(F)cc2)nc1-c1ccccc1	1	6[fluorescence artefact?]	-8	2	-35	2	-4
CCOC(=O)N1CCN(C(=O)C2CCN(S(=O)(=O)c3ccc(Br)s3)CC2)CC1	1	11	-7	-1	-14	1	-2
COc1cccc(C2=NOC(C(=O)Nc3ccc(OC)c(OC)c3)C2)c1 (stereo not drawn)	-4	-3	15	0	-5	5	-1
Nc1nc(/C=C/c2cccnc2)nc(-c2ccccc2O)n1	-11	-1	2	0	-18	-115	9
O=c1oc(-c2ccccc2[N+](=O)[O-])nc2ccccc12	12	8	27	1	-20	-4	1
Cc1nc(-c2ccccn2)sc1C(=O)Nc1ccc(F)cc1	-1[fluorescence artefact?]	-5	-7	-2	-3	6	0
Cc1ccc(S(=O)(=O)N(CC(=O)N2CCCCC2)c2cccc(C)c2)cc1	0	1	-9	0	.	-8	-7
O=C(c1cccc(Cl)c1)c1nn(-c2ccccc2)c(=O)cc1C(F)(F)F	7	-1	-9	-1	-19	8	-2
Cc1ccc(/C=C2/NC(=O)N(c3ccccc3)C2=O)o1	-5	-3[fluorescence artefact?]	-19	-1	21	-24	7
CCN(CC)S(=O)(=O)c1cccc(C(=O)NCCCN2CCOCC2)c1	-5[fluorescence artefact?]	6	-13	0	-23	1	2
COCCCNC(=S)NCCCNc1nc2cc3c(cc2cc1C#N)OCO3	3	-3	-55	1	1	-2	3
COc1ccc(CNC(=O)C2CC(c3ccc(OC)cc3)=NO2)cc1 (stereo not drawn)	4	1	-9	-2	11	-1	-3
CC(=O)NC1=NN(C(C)=O)C(c2ccc(F)cc2)S1 (stereo not drawn)	-4	2	-4	0	-3	5	8
O=C(COc1ccccc1Cl)NCc1ccncc1	10[fluorescence artefact?]	-5[fluorescence artefact?]	0	2	2	1	8
COc1ccc(-c2sc(NC(C)=O)nc2-c2ccccc2)cc1	-35[fluorescence artefact?]	-8[fluorescence artefact?]	-12	0	-11	8	2
CC(=O)Nc1cc(C)c2nc(NC(C)=O)sc2c1	-1	-5	-5	-2	.	26	4
Cc1ccccc1OCCNC(=O)CSc1ccc(C(F)(F)F)cc1[N+](=O)[O-]	-6	9	-16	1	-4	-3	0
COc1ccc(OC)c(-n2c(-c3cc(-c4ccccc4)n[nH]3)n[nH]c2=S)c1	10	-10	8	2	7	20	-4
Nc1nncn1C(=O)c1c(Cl)cccc1Cl	1	-2	-14	-2	-10	-2	-5

Screening data as filed in PubChem.
